# Compound activity (PubChem)
# miR-21 reporter = miR-21 reporter, rising signal. HeLa miR-21 FLuc reporter, luciferase, 48 h. Potency, µM (top dose mostly 38.3 µM), for inactives: at the highest dose reporter change, positive = more light. 340,000 tested, under 10 active; active = well fitted rising curve with a large enough effect; inconclusive = small, poorly fitted or top-dose-only effect; inactive = no such curve, though single readings can be large or run the other way;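 note: % of control where 0% means no effect; miR-21 action dims this reporter so a rising signal means less miR-21 action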
#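 Luminescence from a firefly luciferase reporter carrying a miR-21 binding site downstream, stably expressed under a CMV promoter in HeLa cells that make miR-21 endogenously, reports miRNA modulation after 48 h compound exposure up to approximately 40uM final.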
# GLA inh pH 4.5 = blocks human alpha-galactosidase A at pH 4.5 | P06280 | purified enzyme, 4-MU-alpha-Gal fluorescence, pH 4.5 | activity change, negative = inhibition, % at 105 µM | 230,000 tested, under 10 active | AID 1467; inconclusive = small, poorly fitted or top-dose-only inhibition, or a rising curve; inactive = flat fitted curve, though single readings scatter; no compound was filed as active;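 note: 0% = full activity with enzyme and -100% = basal without enzyme; dose as in the result columns while the protocol names 77 µM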
# Rango complex inh = inhibitors of Rango-importin beta complex formation; Rango CFP/YFP FRET sensor + importin beta, 45 min; Potency, µM (titrated, usually from 92.2 µM), without a hit: at the top dose inhibition of complex formation; hit rate 0.031% among 340,000; AID 540263; active = rising FRET ratio curve, often small or poorly fitted; inconclusive = mostly compound fluorescence or quenching in the first reads; inactive = flat curves in all reads;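 note: potency is the fitted concentration of half-maximal effect; 0% = DMSO wells and 100% = buffer wells lacking importin beta; nearly all actives have a fitted effect of over 15% in size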
# Target sequence (Q14974 whole entry, looked up): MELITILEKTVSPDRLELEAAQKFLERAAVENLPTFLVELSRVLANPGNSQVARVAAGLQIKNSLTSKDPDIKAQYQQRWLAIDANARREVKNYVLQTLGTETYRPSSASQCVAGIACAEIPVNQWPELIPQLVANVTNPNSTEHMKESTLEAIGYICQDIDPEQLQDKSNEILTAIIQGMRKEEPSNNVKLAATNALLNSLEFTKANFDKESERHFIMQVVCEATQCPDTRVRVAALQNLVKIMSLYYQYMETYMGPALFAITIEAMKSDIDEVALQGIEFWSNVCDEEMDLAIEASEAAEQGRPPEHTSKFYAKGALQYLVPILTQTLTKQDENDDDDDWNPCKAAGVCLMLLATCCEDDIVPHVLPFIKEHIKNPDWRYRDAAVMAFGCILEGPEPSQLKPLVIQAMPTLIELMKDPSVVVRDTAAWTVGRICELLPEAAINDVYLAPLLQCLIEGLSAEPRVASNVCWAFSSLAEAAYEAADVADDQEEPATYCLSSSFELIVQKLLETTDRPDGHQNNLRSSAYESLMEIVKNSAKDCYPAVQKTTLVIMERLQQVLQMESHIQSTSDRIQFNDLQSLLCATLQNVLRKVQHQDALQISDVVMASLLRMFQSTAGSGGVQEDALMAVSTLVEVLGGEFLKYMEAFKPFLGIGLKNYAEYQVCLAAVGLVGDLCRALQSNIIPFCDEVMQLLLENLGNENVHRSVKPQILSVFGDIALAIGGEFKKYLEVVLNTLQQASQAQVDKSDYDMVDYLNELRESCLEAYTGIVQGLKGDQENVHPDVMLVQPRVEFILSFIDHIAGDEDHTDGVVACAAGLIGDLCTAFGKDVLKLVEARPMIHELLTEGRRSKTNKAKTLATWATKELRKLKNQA
#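 FRET biosensor (snurportin 1 IBB flanked by EYFP and cerulean), 50 nM, with compound 5 min, then 0.125 microM importin beta in PBS, 1 mM DTT, 0.02% Tween-20, 0.1% BSA. CFP/YFP ratio read after 45 min at room temperature; pre-read flags interference.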
# Rango release inh = prevents RanGTP from dissociating the Rango-importin beta complex; hit rate 0.071% among 340,000; Potency, µM (titrated, usually from 46.1 µM), for inactives: at the highest dose activity change, negative = inhibition; Biochemical FRET Rango-importin beta, RanGTP-induced dissociation; AID 540253; O95149+P62826; active means falling FRET ratio curve, often poorly fitted, with flat reads before Ran was added; inconclusive means other falling curves, or compound fluorescence or quenching; inactive means flat or rising ratio curve;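 note: potency is the fitted concentration of half-maximal effect; % of control where 0% means no effect; nearly all actives have a fitted effect of over 45% in size; -100% = wells without RanGTP and RCC1; the record marks most hits as doubtful in a second field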
#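 Rango FRET biosensor (snurportin-1 IBB flanked by N-terminal EYFP and C-terminal CFP10) at 0.1 uM, with 0.25 uM importin beta in PBS, 1mM DTT, 0.02% Tween-20, 0.1% BSA. 0.6 uM Ran, 2mM GTP and 0.2 uM RCC1 were then added for 45 min at room temperature. Inhibition read as loss of FRET rise.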
# Active calls of the source: *; ? = inconclusive; nt = not tested or not shown. Only part of the results is shown; the hit share may differ from the screen's.
SMILES,miR-21 reporter,GLA inh pH 4.5,Rango complex inh,Rango release inh
Cc1ccc(OCC(=O)OCCN2C(=O)c3ccccc3C2=O)cc1C,-1%,-8,-2.2%,-5%
COc1ccc(NC(=O)C(=O)N/N=C\c2ccc(CNC(=O)C(=O)Nc3ccc(C)c(C)c3)o2)c(OC)c1,-8%,nt,0.0%,10%
CC(C)(C)CNC(=O)c1ccc2c(c1)S(=O)(=O)c1cc(Cl)ccc1C2=O,nt,nt,4.3%,10%
CCOC(=O)N1CCN(C(=O)c2cnn3c(C(F)F)cc(-c4ccc(C)cc4)nc23)CC1,-3%,-9,-0.7%,-6%
COc1cc(C(=O)Nc2ccc(C)cc2)c2ccccc2n1,13%,nt,0.1%,1%
CC(C)OC(=O)c1ccc(COc2ccc3ccc(=O)oc3c2)o1,-47%,nt,5.7%,4%
CC(C)CCNC(=O)CCc1nnc2ccc(N3CCC(C)CC3)nn12,-1%,nt,-0.7%,3%
O=C(CCCn1c(=O)[nH]c2ccsc2c1=O)N1CCN(c2ccccn2)CC1,5%,-5,-0.3%,8%
CCOc1ccccc1NC(=O)CCn1c(=O)oc2ccccc21,0%,4,2.4%,6%
CCOc1ncccc1C(=O)OCC(=O)NCc1ccccc1,nt,nt,1.5%,5%
C=C(C)CNC(=O)C1CCC(=O)N(CCCc2ccccc2)C1 (configuration not stated),nt,nt,-3.5%,-3%
O=C(c1ccc(Oc2ccccc2)cc1)c1nc2c(n1O)CCCC2,-29%,-10,0.4%,0%
CC(=O)Nc1nonc1-c1nc2ccccc2n1CCC(C)C,20%,-9,-0.7%,-5%
O=C(Cn1cnc2ccccc2c1=O)OCCCCN1C(=O)c2ccccc2C1=O,-1%,-6,4.0%,-4%
CC1CC(=O)N(CC(=O)Nc2ccccc2F)c2ccccc2S1(=O)=O (configuration not stated),-4%,nt,-1.7%,-1%
Cn1c2ccccc2c2ncn(CCN3CCOCC3)c(=O)c21,-21%,1,?,-21%
COc1cc(OC)cc(C(=O)N[C@H](C(=O)OCC(=O)Nc2ccc(C(C)C)cc2)C(C)C)c1,-5%,-11,0.6%,-2%
Cc1ccc(S(=O)(=O)CC(=O)Nc2nnc(C(C)(C)C)s2)cc1,-2%,nt,-2.0%,-16%
CCn1c(COc2ccccc2)nnc1SCC(=O)Nc1cc(C)ccc1OC,8%,-4,-3.7%,0%
CC(C)Nc1nc(Cl)nc(NN(C)c2nc(N(C)C)nc(N(C)C)n2)n1,-5%,2,1.8%,-6%
O=C(NCc1n[nH]c(=S)n1-c1ccccc1)c1ccc(S(=O)(=O)N2CCOCC2)cc1,-9%,-1,-3.7%,2%
COC(=O)c1cnn(-c2ccccc2)c1/C=N/NC(=S)Nc1ccccc1,-3%,-4,-0.8%,-9%
COC(=O)c1cccc(NC(=O)Cc2nc(-c3ccccc3)sc2-c2ccc(C)cc2)c1,-4%,-4,-1.0%,0%
Cc1cc(Cl)ccc1OCCCC(=O)N1CCCc2ccccc21,-7%,-7,0.4%,13%
CCC1(c2ccccc2)NC(=O)N(CC(=O)NC2(C#N)CCCCC2)C1=O (configuration not stated),nt,nt,1.9%,9%
Cc1cc2cc(CNC(=O)c3ccc(S(=O)(=O)N(C)C)cc3)ccc2n1C,-3%,0,-0.6%,-18%
Cc1ccsc1/C=N/NC(=O)C(=O)NCC(C)C,-51%,4,0.3%,-1%
Cc1cc(C(=O)N2CCN(C/C=C/c3ccccc3)CC2)no1,-2%,6,-1.9%,4%
CC(=O)N1CCOc2ccc(S(=O)(=O)NCc3ccc(Cl)cc3)cc21,3%,nt,-2.1%,10%
CC(=O)Nc1c(O)nc(SCc2ccccc2C#N)[nH]c1=O,-8%,-1,-3.0%,4%
CCC(C)NC(=O)C1CCN(S(=O)(=O)c2cccc3nonc23)CC1 (configuration not stated),-6%,nt,0.4%,-1%
Cc1ccc(S(=O)(=O)CCC(=O)Nc2cccc(Cl)c2)cc1,0%,nt,-4.4%,-3%
Cc1nnc2c3ccccc3c(-c3ccc(O)cc3)nn12,-3%,2,2.3%,1%
O=C(C1CCCN(S(=O)(=O)Cc2ccccc2)C1)N1CCCCC1 (configuration not stated),4%,4,-6.2%,-3%
CCCn1c(C)cc(C(=O)COc2ccc(-c3nnco3)cc2)c1C,-20%,8,-0.2%,9%
O=C(CSc1ccc2ccccc2c1)N1CCN(c2ccc(O)cc2)CC1,-28%,0,-0.3%,0%
O=C(COC(=O)/C=C/c1ccco1)NCCc1ccccc1,-6%,6,0.6%,0%
CC(=O)Nc1ccc(S(=O)(=O)N/N=C/c2ccc(C)s2)cc1,-36%,5,0.2%,-10%
O=C(NC1CCN(C(=S)Nc2ccc(Cl)cc2)CC1)c1ccco1,-3%,nt,4.6%,-4%
O=C(O)c1ccc(N/N=C/c2cn(Cc3ccc(F)cc3)c3ccccc23)cc1,-42%,-2,?,2%
COCCCNC(=O)CCc1c(C)nc2c(c(C)nn2-c2ccccc2)c1C,-1%,nt,-1.4%,3%
C/C(=C\C(=O)O)C(=O)Nc1nccs1,-1%,5,-1.2%,2%
CCOc1cc(/C=C2/C(=O)ON=C2C)ccc1O,5%,nt,-0.6%,-11%
CC1(C)COC(c2ccc(F)c([N+](=O)[O-])c2)=N1,3%,-6,0.8%,-8%
Cc1cc(C)n(-c2ncnc3sc4c(c23)CC(C)CC4)n1 (configuration not stated),-9%,-2,-0.3%,-4%
CN(C)c1ccc(CN(C(=O)c2cccs2)C2CCS(=O)(=O)C2)cc1 (configuration not stated),0%,nt,1.8%,-8%
O=C(Nc1cccc(C(F)(F)F)c1)c1ccco1,-12%,4,10%,-8%
Cc1ccc([C@@H]2[C@@H]3C(=O)N(C)C(=O)[C@@H]3[C@]3(C)C(=O)N(Cc4ccccn4)CC(=O)N23)o1,-4%,nt,-0.2%,?
NC(Cc1cccc2nsnc12)C(=O)O (configuration not stated),-4%,-2,-1.8%,-2%
CCC(C)(C)NC(=O)C1c2ccccc2Oc2ccccc21,-2%,0,2.3%,17%

# Four of the entries above in order of their number in Rango complex inh, falling:
SMILES,miR-21 reporter,GLA inh pH 4.5,Rango complex inh,Rango release inh
CCC(C)(C)NC(=O)C1c2ccccc2Oc2ccccc21,-2%,0,2.3%,17%
Cc1ccc([C@@H]2[C@@H]3C(=O)N(C)C(=O)[C@@H]3[C@]3(C)C(=O)N(Cc4ccccn4)CC(=O)N23)o1,-4%,nt,-0.2%,?
Cc1cc(C)n(-c2ncnc3sc4c(c23)CC(C)CC4)n1 (configuration not stated),-9%,-2,-0.3%,-4%
NC(Cc1cccc2nsnc12)C(=O)O (configuration not stated),-4%,-2,-1.8%,-2%

# Going on with the list:
SMILES,miR-21 reporter,GLA inh pH 4.5,Rango complex inh,Rango release inh
CN1CCN(c2ccc(NC(=O)N3CCc4ccccc43)cc2)CC1,11%,nt,4.8%,10%
O=C(NC(=S)Nc1cccc(C(F)(F)F)c1)c1ccc2nonc2c1,23%,-4,-0.2%,3%
CCCCOc1ccc(Br)cc1/C(C)=N/NC1=NCCN1,?,-4,3.8%,9%
O=c1n(Cc2ccc(Cl)cc2)c2sc3c(c2c2ncnn12)CCCC3,-4%,-12,-1.1%,0%
O=C(NCc1ccncc1)c1ccc(Br)cc1,7%,-1,5.4%,-9%
Cc1sc(-n2c(C)cc(C=O)c2C)c(C(=O)O)c1C,-1%,-1,-2.2%,-11%
O=S(=O)(c1ccc2nc(Cc3cccc(C(F)(F)F)c3)[nH]c2c1)N1CCOCC1,-1%,-9,0.4%,-7%
O=C(Nc1cc(S(=O)(=O)N2CCOCC2)ccc1N1CCOCC1)c1cnccn1,5%,3,6.3%,7%
COc1ccc(NC(=O)COC(=O)c2c3c(nc4ccccc24)CCCC3)cc1,?,-19,3.8%,-5%
Cc1nc(NC(=O)CSc2cc(C)c3ccccc3n2)c(Cl)cc1Cl,-11%,3,-0.9%,1%
O=C(O)CSCc1nc2cccnc2n1C1CCCCC1,-6%,nt,3.2%,4%
C=CCNC(=O)c1ccccc1NS(=O)(=O)c1ccc(OC)c(C(=O)N2CCOCC2)c1,0%,nt,1.1%,4%
CCOC(=O)C1CCN(S(=O)(=O)CCNC(=O)c2ccccc2)CC1,nt,nt,1.2%,?
CCCCn1c(N)c(N(CCC(C)C)C(=O)COC(=O)c2ccc(CC)cc2)c(=O)[nH]c1=O,nt,nt,0.7%,17%
OC(CCN1CCC2CCC(C2)C1)c1ccc(Br)cc1 (configuration not stated),nt,nt,0.2%,-14%
CCC(Oc1ccccc1)C(=O)Nc1ccc(S(=O)(=O)Nc2cc(C)on2)cc1 (configuration not stated),5%,nt,-0.6%,1%
CC(C)N(CC#CCC(O)(c1ccccc1)C1CCCC1)CCO (configuration not stated),-4%,0,-0.2%,-3%
COC(=O)CCNc1ccc2c(c1)OCCO2,-26%,-2,1.5%,3%
Cc1nc2nc(-c3cccs3)[nH]c2cc1Br,nt,nt,11%,14%
NNC(=O)c1ccc(Cn2cc(Br)c(N)n2)cc1,2%,1,?,-20%
O=C(CC12CC3CC(CC(Br)(C3)C1)C2)Nc1cccc(S(=O)(=O)NC2=NCCC2)c1,4%,-1,-0.6%,?
COC(=O)CCCCCCCCC(O)CN1CCCCC1 (configuration not stated),1%,-5,0.2%,-1%
O=C(COc1ccc(Br)cc1Br)NC1CCCC1,-16%,0,1.3%,-12%
COc1ccc(NC(=O)COC(=O)c2ccc(-n3cnnn3)cc2)c([N+](=O)[O-])c1,nt,nt,-1.3%,-1%
COc1ccc(S(=O)(=O)N2CCN(C)CC2)cc1C(=O)Nc1ccccc1,-4%,nt,1.0%,11%
O=S(=O)(c1ccc(Br)s1)N1CCN(Cc2ccc3c(c2)OCO3)CC1,-16%,2,-2.7%,15%
O=C(NCC(c1ccco1)N1CCN(c2ccccc2F)CC1)c1ccc2c(c1)OCO2 (configuration not stated),nt,nt,-0.7%,7%
COC(=O)[C@@]1(Cc2ccc(F)cc2)[C@H]2c3cc(C(=O)N4CCCC4)n(CCCNc4ncc(C(F)(F)F)cc4Cl)c3C[C@H]2CN1C(=O)c1ccccc1,2%,-1,-0.3%,-15%
Cn1ccsc1=NC(=O)c1ccc(Cl)cc1,-52%,-7,-1.9%,-5%
Cc1nnc(C)n1/N=C/c1cc(Br)cc(Br)c1O,-1%,-2,?,?
COc1cc(COC(=O)c2cnc(C)cn2)c(OC)cc1Br,1%,nt,6.5%,-3%
CCOC(=O)C1C(=O)C=C(C)C(C(=O)OCC)C1c1ccc(OC)cc1 (configuration not stated),-3%,-6,3.9%,2%
Cc1ccc(C2=NOC(=O)/C2=C\c2ccc(C)o2)cc1,-23%,-2,?,?
COc1ccc(OC)c2sc(NC(=O)C(C)C)nc12,-5%,1,-1.4%,4%
CCCc1nnc(NC(=O)CCC(=O)N2CCN(C3CCCC3)CC2)s1,-4%,nt,-0.4%,4%
COC(=O)c1oc2ccc(OC)cc2c1N,-23%,-3,-0.7%,-9%
Cc1cc(C)c2c(N)c(C(=O)Nc3ccccc3F)sc2n1,-59%,nt,?,?
O=C(Nc1cccc(S(=O)(=O)C(F)F)c1)c1ccc(S(=O)(=O)N2CCCC2)cc1,23%,0,-2.8%,-16%
NC(=O)CSCc1nc2ccccc2s1,-25%,4,?,0%
COc1ccc(-c2nnc(SCC(=O)NCc3ccco3)n2C)cc1,-2%,6,-0.8%,7%
COc1ccc(OCC(O)Cn2cnc(-c3ccc(Br)cc3)c2)cc1 (configuration not stated),-7%,-15,10%,-13%
ClC(/C=N/n1cnnc1)=C/c1ccccc1,28%,3,2.5%,-12%
O=C(Cn1cnc2cc([N+](=O)[O-])ccc2c1=O)NC(=O)NCc1ccccc1,-8%,-12,-2.9%,3%
S=C(NCc1ccco1)N1CCN(c2nc(-c3ccccc3)cs2)CC1,3%,3,-0.3%,2%
COc1cc(C(=S)N2CCC(C)CC2)ccc1O,-2%,0,-1.7%,-1%
CCc1ccccc1NC(=O)C1=CC(c2cccs2)=NS(=O)(=O)N1C,10%,nt,-2.5%,-1%
c1ccc2c(c1)nc(NCC1CCCO1)c1nnnn12 (configuration not stated),-17%,1,?,?
